MT1-MMP act inh: MT1-MMP (human) activation inhibition; P50281; HT1080 RFP-PRO-GFP cells, GFP/RFP ratio fluorescence, overnight; percent of plate control window, DMSO zero; GFP/RFP ratio change, % at 20 µM; 360,000 compounds, 0.061% hits;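 active = GFP/RFP ratio change of at least 30% with cell ATP level not reduced by more than half and red fluorescence within 50% of control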; also: strong numbers were not always called active
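Test system: HT1080 RFP-PRO-GFP cells; Benchmarks: DMSO and RFP-L50D-GFP cell wells; Timing: cells overnight before dosing, compound overnight, 37 °C, 5% CO2; Compound: one 20 µM compound dose with 1% DMSO; Read-out: GFP/RFP fluorescence ratio.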
PABP FP inh: blocks human PABP binding to poly(A) RNA; P11940; fluorescence polarization; inhibition, % at 35 µM; 290,000 compounds, 1% hits; AID 2014;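 active = 50% or more with normal probe brightness, or confirmed in later tests; about a fifth of its hits are not listed in these tables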;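 also: calls also rest on retests at 20 µM and on dose response follow-up; controls were probe without protein and protein plus probe with vehicle; some compounds called inactive have numbers as strong as hits; many hits fall short of the cut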
Target sequence (P11940 whole entry, looked up): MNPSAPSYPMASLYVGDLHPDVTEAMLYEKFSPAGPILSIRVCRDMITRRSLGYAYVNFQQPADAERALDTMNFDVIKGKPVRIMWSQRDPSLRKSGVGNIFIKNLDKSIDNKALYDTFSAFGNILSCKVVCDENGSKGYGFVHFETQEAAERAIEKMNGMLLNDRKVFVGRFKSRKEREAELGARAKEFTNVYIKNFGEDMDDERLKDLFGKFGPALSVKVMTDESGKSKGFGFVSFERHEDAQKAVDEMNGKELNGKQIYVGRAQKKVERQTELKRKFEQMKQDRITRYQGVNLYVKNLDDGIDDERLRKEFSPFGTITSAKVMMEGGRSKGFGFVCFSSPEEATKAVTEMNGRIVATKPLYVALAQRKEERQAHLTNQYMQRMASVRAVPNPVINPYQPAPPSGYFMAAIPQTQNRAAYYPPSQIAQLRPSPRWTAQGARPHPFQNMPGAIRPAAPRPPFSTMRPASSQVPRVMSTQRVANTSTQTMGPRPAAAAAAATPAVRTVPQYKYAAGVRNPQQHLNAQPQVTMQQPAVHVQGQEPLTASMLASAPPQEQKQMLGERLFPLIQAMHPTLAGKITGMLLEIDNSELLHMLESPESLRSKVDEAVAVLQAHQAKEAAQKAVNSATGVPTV
CSC inhib: cancer stem cell inhibition; 300,000 compounds, 1.1% hits; inhibition, % at 7.5 µM; AID 2717; cancer stem cell-like cells viability, luminescence;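 active = mean at 75% or more and at least half the replicates too; tested in HMLE shEcad cells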;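 also: 0% = median of negative and 100% = median of positive control wells; the first replicate is given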
Yeast UUG start: alters start codon recognition fidelity in yeast; 350,000 compounds, 0.13% hits; S. cerevisiae UUG-firefly luciferase reporter, luminescence/redox ratio; activity score, % at 18.7 µM; AID 602363;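 active = replicate mean at a twofold rise or more, about +100% in these data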;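 also: firefly luciferase made from a UUG start codon reports start codon fidelity; reporter light over untreated wells divided by growth signal over untreated wells; some hits fall short of that in this replicate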
Rce1 inhib: inhibitors of yeast Ras-converting enzyme. yeast membranes, quenched prenylated peptide cleavage fluorescence. calls only. Q03530. 290,000 compounds, 0.27% hits;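 active = fall in fluorescence gain of 50% or more versus controls, with final raw signal at or below 3038400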;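 also: plate controls were neutral control wells for no effect and wells lacking membranes for full effect; tested at 10 µM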
HIV Env fusion: HIV envelope-mediated fusion inhibition; HeLa-JRFL Env/CEM21 cell fusion, luciferase; inhibition, % at 12.3 µM; 360,000 compounds, 1.1% hits; AID 651610;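 active = mean replicate inhibition score of at least 50 and every replicate individually at or above 50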;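 also: 0% = plate neutral controls and 100% = maraviroc near 300 nM; one replicate is shown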
eIF4H inh: inhibitors of RNA binding by human eIF4H; Q15056; eIF4H fluorescence polarization binding assay; inhibition, % at 35 µM; 290,000 compounds, 0.94% hits;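 active = 50% or more with normal probe brightness, or confirmed in later tests; about a fifth of its hits are not listed in these tables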;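 also: calls also rest on retests at 20 µM and on dose response follow-up; 0% = protein and probe with vehicle and 100% = probe without protein; strong numbers were not always called active; many hits fall short of the cut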
eIF4H inh retest: further read-out of eIF4H inh, marked with its call; inhibition, %; compound at 20 µM; confirmation average;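 mean of two retest wells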
PABP FP inh retest: further read-out of PABP FP inh, marked with its call; inhibition, %; compound at 20 µM; confirmation repeats;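 mean of two retest wells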
MT1-MMP act inh RFP: second read-out of MT1-MMP act inh, no call of its own (marks repeat the call); RFP signal change, %; measured here: RFP expression control read;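 0 = vehicle wells; hits needed this value within 50% of zero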
The depositor's hits bear a star; i = inactive; · = not tested or not shown. These rows are one share of the data (hit frequency here may not be typical).

The opening 3 compounds, ahead of the listing:
SMILES | MT1-MMP act inh | MT1-MMP act inh RFP | PABP FP inh | CSC inhib | Yeast UUG start | Rce1 inhib | HIV Env fusion | eIF4H inh | others
CCc1ccc(NC(=O)CN2C(=O)CSC2=O)cc1 | 5 | 4 | -8 | -5 | -5 | i | · | 4
CCOC(=O)c1c(C)[n+]([O-])c2ccc3c(non3O)c12 | -1 | 1 | -10 | -10 | · | i | 10 | 8
CN(CC(=O)NCc1ccc(Cl)cc1)S(=O)(=O)c1cccc2cccnc12 | -9 | -5 | 10 | -2 | -1 | i | 3 | 2

All compounds of this part (from the top)
SMILES | MT1-MMP act inh | MT1-MMP act inh RFP | PABP FP inh | CSC inhib | Yeast UUG start | Rce1 inhib | HIV Env fusion | eIF4H inh | others
CCc1ccc(NC(=O)CN2C(=O)CSC2=O)cc1 | 5 | 4 | -8 | -5 | -5 | i | · | 4
CCOC(=O)c1c(C)[n+]([O-])c2ccc3c(non3O)c12 | -1 | 1 | -10 | -10 | · | i | 10 | 8
CN(CC(=O)NCc1ccc(Cl)cc1)S(=O)(=O)c1cccc2cccnc12 | -9 | -5 | 10 | -2 | -1 | i | 3 | 2
Nc1ccc(Nc2ccncc2[N+](=O)[O-])cc1 | 0 | -2 | 4 | -4 | -13 | i | -9 | -10
CCOC(=O)C1CCN(C(=O)C2CCN(C(=O)c3ccc([N+](=O)[O-])cc3)CC2)CC1 | 0 | -1 | 6 | -7 | -4 | i | · | 2
COc1ccc(CC(CC(=O)O)C(=O)Nc2ccc(OC)cc2)cc1 (stereo not given) | -3 | 3 | 7 | 0 | -2 | i | -56 | 4
COC(=O)Cc1c(O)ccn(CCc2ccc(OC)c(OC)c2)c1=O | 0 | 4 | 6 | -11 | -9 | i | -18 | 8
Cc1ccc(C)c(-n2c(-c3ccc4c(c3)OCO4)n[nH]c2=S)c1 | 6 | -2 | 3 | -12 | -26 | i | -64 | 3
CCC(c1nnnn1Cc1ccc2c(c1)OCO2)N1CCN(CC)CC1 (stereo not given) | -2 | 1 | 12 | -7 | -1 | i | -9 | 38
COc1ccc(N2CC(C(=O)N/N=C/c3cc([N+](=O)[O-])ccc3O)CC2=O)cc1 (stereo not given) | 2 | 0 | -9 | -2 | · | i | 10 | 8
Cc1ccc(-c2nc3ncccn3c2Nc2ccc3c(c2)OCO3)o1 | -5 | 0 | 1 | 7 | -27 | i | -196 | 92 | eIF4H inh retest=40;PABP FP inh retest=44
COc1ccccc1NC(=O)C1CC(O)CN1C(=O)Oc1ccccc1 (stereo not given) | -2 | 6 | 0 | · | -1 | i | 1 | -2

Brought forward from above: two entries, then new ones.
SMILES | MT1-MMP act inh | MT1-MMP act inh RFP | PABP FP inh | CSC inhib | Yeast UUG start | Rce1 inhib | HIV Env fusion | eIF4H inh | others
Cc1ccc(-c2nc3ncccn3c2Nc2ccc3c(c2)OCO3)o1 | -5 | 0 | 1 | 7 | -27 | i | -196 | 92 | eIF4H inh retest=40;PABP FP inh retest=44
COc1ccccc1NC(=O)C1CC(O)CN1C(=O)Oc1ccccc1 (stereo not given) | -2 | 6 | 0 | · | -1 | i | 1 | -2
O=C(NC1CCC(=O)N(CCOc2ccccc2)CC1)OCc1ccccc1 (stereo not given) | 6 | -2 | 1 | -4 | 19 | i | 5 | -12
COC(=O)CC1C(=O)NCCN1C(=O)c1c(F)cccc1F (stereo not given) | -1 | 1 | -3 | -5 | -2 | i | -16 | 1
Cc1nc2ccc(NC(=O)c3cncc(Br)c3)cc2s1 | -8 | -6 | 7 | -3 | · | i | 15 | 3
CCC(=O)NCc1nc2ccccc2n1Cc1ccccc1F | -2 | 2 | 7 | -14 | -18 | i | -5 | -5
COc1ccc(C(O)c2nccc3cc(OC)c(OC)cc23)cc1OC (stereo not given) | 1 | -15 | 9 | -1 | · | i | -2 | -11
CC(C)Cc1nnc(NC(=O)CCC(=O)NCCc2ccc(Cl)cc2)s1 | 0 | -5 | · | -7 | 1 | i | 0 | ·
Cc1ccccc1-c1cc(C(=O)NCc2cccc(Br)c2)n(CC2CC(c3cccnc3)=NO2)n1 (stereo not given) | -1 | -2 | · | · | -9 | · | -8 | ·
COc1cc2c(cc1OC)C(c1ccc(Cl)cc1)=NCC2 | -2 | 4 | -1 | -4 | -21 | i | 11 | -3
CC(C)CC(=O)NNC(=O)c1ccc(Cl)cc1 | 1 | 1 | 0 | · | · | i | 3 | -12
O=C1C2C3C=CC(C3)C2C(=O)N1c1ccccc1OS(=O)(=O)c1ccccc1 (stereo not given) | -3 | 0 | -7 | 10 | -6 | i | 14 | -9
CCOC(=O)C1(C)NC(c2cccs2)C2C(=O)N(c3ccccc3)C(=O)C21 (stereo not given) | 7 | 7 | 5 | -9 | · | i | -11 | 6
N#CCC(=N)N1CCN(c2ccccc2Cl)CC1 | -2 | -2 | -6 | 1 | · | i | · | -1
CC(C)=CCCC(C)CN1CCC(N2CCC(C(=O)NC(C)C)CC2)CC1 (stereo not given) | 1 | 3 | -8 | 0 | · | i | -2 | -3
CCOC(=O)c1cc(CC)sc1NC(=O)C1CC(=O)NN1Cc1ccccc1 (stereo not given) | -5 | -13 | -8 | 19 | · | i | · | -8
CN1C(=O)NC(c2cccc([N+](=O)[O-])c2)C2=C1CC(C)(C)CC2=O (stereo not given) | -2 | 0 | -2 | -10 | -5 | i | 21 | -1
N#Cc1c(C(F)(F)F)cc(-c2ccc(Cl)cc2)[nH]c1=O | -2 | 0 | -8 | 33 | -4 | i | -215 | -12
O=C(Nc1ccccc1)OCCOc1ccc(Br)cc1 | -1 | 1 | 3 | 1 | -25 | i | 3 | -8
COc1ccccc1NC(=O)Cc1csc(NC(=O)c2ccccc2)n1 | 0 | -5 | -8 | 13 | · | i | 11 | -18
COc1ccc(C(=O)O)cc1S(=O)(=O)Nc1ccccc1Cc1ccccc1 | -2 | -2 | 5 | · | 0 | i | 1 | -11
COC(=O)c1ccc(CS(=O)(=O)c2ccc(F)cc2)o1 | -3 | 0 | 18 | -8 | -7 | i | -2 | 11
COc1ccc(CC(=O)Nc2cccc(-c3ccc4nnc(C)n4n3)c2)cc1OC | 7 | -13 | 1 | -5 | · | i | 13 | -6
Cc1cccc(C)c1NS(=O)(=O)c1ccc(-c2cnc(C3CC3)o2)cc1 | 6 | -13 | 0 | · | -8 | i | 15 | -9
O=C(COc1ccccc1Cl)NCc1ccco1 | -2 | -3 | 5 | -2 | -19 | · | · | 1
COc1ccccc1NC(=O)C(=O)NCCC1CCCCN1S(=O)(=O)c1ccc(F)cc1 (stereo not given) | 2 | -10 | · | 8 | 3 | i | 12 | ·

5 consecutive entries already listed, quoted:
SMILES | MT1-MMP act inh | MT1-MMP act inh RFP | PABP FP inh | CSC inhib | Yeast UUG start | Rce1 inhib | HIV Env fusion | eIF4H inh | others
CC(C)=CCCC(C)CN1CCC(N2CCC(C(=O)NC(C)C)CC2)CC1 (stereo not given) | 1 | 3 | -8 | 0 | · | i | -2 | -3
CCOC(=O)c1cc(CC)sc1NC(=O)C1CC(=O)NN1Cc1ccccc1 (stereo not given) | -5 | -13 | -8 | 19 | · | i | · | -8
CN1C(=O)NC(c2cccc([N+](=O)[O-])c2)C2=C1CC(C)(C)CC2=O (stereo not given) | -2 | 0 | -2 | -10 | -5 | i | 21 | -1
N#Cc1c(C(F)(F)F)cc(-c2ccc(Cl)cc2)[nH]c1=O | -2 | 0 | -8 | 33 | -4 | i | -215 | -12
O=C(Nc1ccccc1)OCCOc1ccc(Br)cc1 | -1 | 1 | 3 | 1 | -25 | i | 3 | -8

Further compounds
SMILES | MT1-MMP act inh | MT1-MMP act inh RFP | PABP FP inh | CSC inhib | Yeast UUG start | Rce1 inhib | HIV Env fusion | eIF4H inh | others
COc1cccc(CNC(=O)CCS(=O)(=O)c2ccc3c(c2)CC(C)N3C(=O)C2CC2)c1 (stereo not given) | 2 | 5 | 4 | 5 | -9 | i | 31 | -10
CN(CC(=O)Nc1cccc2ccccc12)C(=O)c1ccc(NC(=O)CC#N)cc1 | 0 | 1 | · | -5 | -12 | · | 16 | ·
CCCCN(CC)CCCNC(=O)c1ccc(CS(=O)(=O)c2c(Cl)cccc2Cl)o1 | 0 | 3 | 8 | -1 | -15 | i | 21 | 3
O=C(NC(=S)N1CCN(c2ccc(O)cc2)CC1)c1ccco1 | 3 | 6 | · | 12 | -17 | · | · | ·
Cc1noc(C(=O)Nc2cccnc2Cl)c1Cl | -2 | 2 | -3 | -10 | -24 | i | -7 | -3
COc1ccc(NC(=O)C2CC(=O)OC2c2ccccc2)cc1 (stereo not given) | 0 | 4 | 37 | -1 | · | i | -91 | -4
COc1ccc(OC)c(NC(=O)NCCCCc2ccccc2)c1 | -2 | -6 | -5 | 20 | -12 | i | · | 7
CC(C)(C)N(Cc1ccccc1)C(=O)CN1C(=O)c2ccccc2C1=O | -5 | -1 | 12 | 4 | -13 | i | -1 | 2
Cc1nn2c(=O)c3c4c(sc3nc2n1-c1ccccc1)COC(C)(C)C4 | 2 | 2 | 15 | -8 | -6 | i | 9 | 3
CC(=O)N1CCN(c2ccccc2NC(=O)COc2cc(C)ccc2C(C)C)CC1 | -9 | -10 | 4 | 1 | 3 | i | · | 0
COCc1cc(C)n(CC(=O)Nc2ccc(N3CCOCC3)cc2)c(=O)c1C#N | 1 | 4 | · | -9 | · | i | 3 | ·
COc1ccc(N2CC(C(=O)OCC(=O)c3ccccc3)CC2=O)cc1 (stereo not given) | 1 | 6 | 0 | · | -1 | i | · | -8
Cc1cccc(C)c1NC(=O)Cn1nc(-c2ccc(Cl)s2)ccc1=O | 0 | 1 | 6 | -5 | · | i | 31 | 4
CC(C)COc1ccc(C(=O)Nc2ncn[nH]2)cc1 | -1 | 5 | 6 | 20 | -19 | i | -8 | -6
CCCCN(C(=O)C1=CC=CN2CCS(=O)(=O)N=C12)c1ccccc1 | 7 | 2 | · | · | -4 | · | 6 | ·
Cn1nc2sc3ccccc3n2c(=O)c1=O | 0 | 1 | 3 | -4 | · | i | -11 | 3
O=C(NC1CCCCC1)c1cccc2c1C(=O)c1ccc(-c3ccc(OC(F)(F)F)cc3)cc1S2(=O)=O | 4 | 1 | · | · | 21 | · | 14 | ·
Cc1cc(SCC(=O)NC(=O)c2cccn2C)nc2ccccc12 | 2 | 2 | 12 | -6 | -20 | i | -19 | 10
COc1ccc2nc3ccccc3nc2c1NC(=O)c1ccc(Br)cc1 | -32 | 7 | 5 | 8 | -13 | i | 13 | 1
CCCn1nnc(NC(=O)c2ccc(Br)cc2)n1 | 17 | -2 | -11 | 16 | 5 | i | · | 2
Cc1ccc(/C=N/NC(=O)c2ccoc2C)s1 | -1 | 4 | -5 | 9 | · | i | -11 | -6
CCCCNCc1cc(Br)c(OCc2cccs2)c(OC)c1 | -9 | -6 | -1 | -18 | · | i | · | 3
CCOc1ccc(C2CC(c3ccccc3)Nc3nc(N)nn32)cc1 (stereo not given) | -4 | 3 | 6 | -8 | -13 | i | -17 | -5
CC(C)(C)NC(=O)/C(=C/c1cccnc1)NC(=O)c1ccco1 | -2 | -2 | 8 | -5 | -16 | i | 4 | 4
Cc1cccc(/C(N)=N/OC(=O)COc2ccccc2Cl)c1 | 0 | 4 | 28 | 2 | · | · | 4 | 14
CCOC(=O)N1CCN(C(=O)CN2C(=O)COc3ccc(C(C)(C)C)cc32)CC1 | 1 | -6 | 2 | -10 | -18 | i | · | 5
N#Cc1cnn2c3c(cnc12)C(=O)N1CCc2ccccc2C1C3 (stereo not given) | -2 | 0 | 8 | 0 | · | i | -13 | 8
CCOC(=O)c1sc2ncn(C(CC)C(=O)OC)c(=O)c2c1C (stereo not given) | 6 | -2 | -1 | -10 | -6 | · | · | -19

From PubChem BioAssay
